GCN5L2 inh – blocks human GCN5L2 histone acetyltransferase; GCN5L2 HAT assay, ThioGlo1 CoA-SH fluorescence; Potency, µM (top dose mostly 58.9 µM), for the others: at the highest dose activity change, negative = inhibition, hits mostly inhibitors; 390,000 tested, 0.21% active; active = well fitted inhibition curve with a large enough effect; inconclusive = small, poorly fitted or top-dose-only effect, or another doubt; inactive = no such curve, though single readings can be large or run the other way
Target sequence (Q92830 whole entry, looked up): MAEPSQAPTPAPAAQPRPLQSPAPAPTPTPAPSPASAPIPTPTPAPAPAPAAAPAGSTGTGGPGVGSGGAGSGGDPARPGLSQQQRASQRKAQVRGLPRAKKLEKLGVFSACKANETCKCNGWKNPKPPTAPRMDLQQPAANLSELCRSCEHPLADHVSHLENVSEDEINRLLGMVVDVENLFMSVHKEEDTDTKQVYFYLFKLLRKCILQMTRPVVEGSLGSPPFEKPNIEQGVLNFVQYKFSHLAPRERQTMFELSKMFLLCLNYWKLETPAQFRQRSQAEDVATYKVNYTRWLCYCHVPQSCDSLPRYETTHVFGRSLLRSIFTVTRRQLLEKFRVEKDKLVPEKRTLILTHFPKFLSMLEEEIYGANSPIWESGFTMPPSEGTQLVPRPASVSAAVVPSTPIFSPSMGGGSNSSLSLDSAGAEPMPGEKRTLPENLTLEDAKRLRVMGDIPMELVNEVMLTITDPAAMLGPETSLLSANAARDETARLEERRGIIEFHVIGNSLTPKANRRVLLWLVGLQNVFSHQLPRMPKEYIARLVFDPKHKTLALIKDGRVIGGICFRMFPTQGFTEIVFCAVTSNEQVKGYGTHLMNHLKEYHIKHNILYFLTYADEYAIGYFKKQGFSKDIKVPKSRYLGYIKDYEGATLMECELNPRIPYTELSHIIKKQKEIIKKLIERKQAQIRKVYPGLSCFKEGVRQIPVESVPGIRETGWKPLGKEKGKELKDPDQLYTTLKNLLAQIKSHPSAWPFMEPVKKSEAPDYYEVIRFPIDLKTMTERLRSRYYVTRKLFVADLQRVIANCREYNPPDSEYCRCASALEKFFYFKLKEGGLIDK
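ThioGlo1-coupled HAT assay: 20nM GCN5L2, 70uM acetyl-CoA, 75uM H3(1-25) peptide, pH 7.5. Fluorescence read at 340/540nm at start and after 20 min at room temperature.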
Starred values were filed as active, the others as inactive; & = joins results of further samples. % is scaled to controls: 0 for no effect and ±100 for the full control effect; potency is read from the fitted curve at half-maximal effect. These rows are one share of the data, and most or all hits are left out here.

Start of the listing, in advance:
How did O=C(Nc1cccc(Cl)c1N1CCCC1)c1cc2ccccc2o1 do in these assays?
GCN5L2 inh: -14%

Results for COc1ccccc1-c1nc2cc3ccccc3cc2nc1-c1ccccc1 ?
GCN5L2 inh: -17%

The whole of this part, from the start:
How did O=C(Nc1cccc(Cl)c1N1CCCC1)c1cc2ccccc2o1 do in these assays?
GCN5L2 inh: -14%

Results for COc1ccccc1-c1nc2cc3ccccc3cc2nc1-c1ccccc1 ?
GCN5L2 inh: -17%

How did CCOC(=O)c1ccccc1NC(=O)N1CCC(CN2CCCCC2)CC1 do in these assays?
GCN5L2 inh: 2%

Results for COc1cccc(C(C)NC(=O)c2ccncc2)c1 (configuration not stated) ?
GCN5L2 inh: -13%

How did COc1ccc(C2N=C(N)N=C(N)N2c2ccccc2OC)cc1OC (configuration not stated) do in these assays?
GCN5L2 inh: -4%

What do the screens show for `Clc1ccc(COc2ccccc2CNCc2cccnc2)cc1`?
GCN5L2 inh: 0%

Results for COc1ccccc1N(CC(=O)N(c1ccccc1)C(C)C)S(=O)(=O)c1cccs1 ?
GCN5L2 inh: -6%

What do the screens show for `CCOC(=O)c1c(C)sc2c1N(C(=O)CN1CCOCC1)c1cc(Cl)ccc1S2`?
GCN5L2 inh: -7%

What do the screens show for `COc1ccccc1CNc1ncnc2c1nnn2Cc1ccccc1`?
GCN5L2 inh: -9%

How did COc1ccc(C2/C(=C(/O)c3ccc4c(c3)CC(C)O4)C(=O)C(=O)N2Cc2cccnc2)cc1 (configuration not stated) do in these assays?
GCN5L2 inh: -6%

Results for Cc1ccc(S(=O)(=O)N2CCN(C(=O)CN3CCCCC3)C2C(C)C)cc1 (configuration not stated) ?
GCN5L2 inh: -21%

Results for Nc1c(C(=O)NCc2ccccc2)sc2nc3c(cc12)C(=O)CCC3 ?
GCN5L2 inh: 4%

Results for Cc1cc(C(=O)NN=Cc2ccc(-c3ccc(F)cc3)o2)c(C)o1 ?
GCN5L2 inh: -13%

How did OC[C@@H]1[C@@H](c2ccc(Cl)cc2)C(c2ccc(F)cc2)=NN1c1ccccc1 do in these assays?
GCN5L2 inh: -20%

How did CCOC(=O)c1c(C2CCN(C(=O)OCC)CC2)nc2ccccn12 do in these assays?
GCN5L2 inh: -7%

Results for COc1ccc(C)cc1NC(=O)C1CCCCC1C(=O)O (configuration not stated) ?
GCN5L2 inh: 2%

Results for Cn1c(N)c(C(=O)CSc2nnc(C3CC3)n2N)c(=O)n(C)c1=O ?
GCN5L2 inh: -4%

How did O=C(CN1C(=O)NC2(CCCC2)C1=O)NCCc1ccc(F)cc1 do in these assays?
GCN5L2 inh: 0%

How did CCOc1ccc(C(=O)N2CCC(c3nc4ccccc4o3)CC2)cc1 do in these assays?
GCN5L2 inh: 3%

Results for CC1(c2ccc(OCC(N)=O)cc2)NC(=O)NC1=O (configuration not stated) ?
GCN5L2 inh: 0%

Four compounds drawn at random from the list so far, as already listed:
How did COc1ccc(C2/C(=C(/O)c3ccc4c(c3)CC(C)O4)C(=O)C(=O)N2Cc2cccnc2)cc1 (configuration not stated) do in these assays?
GCN5L2 inh: -6%

What do the screens show for `COc1ccccc1CNc1ncnc2c1nnn2Cc1ccccc1`?
GCN5L2 inh: -9%

Results for Cc1ccc(S(=O)(=O)N2CCN(C(=O)CN3CCCCC3)C2C(C)C)cc1 (configuration not stated) ?
GCN5L2 inh: -21%

How did CCOC(=O)c1c(C2CCN(C(=O)OCC)CC2)nc2ccccn12 do in these assays?
GCN5L2 inh: -7%

The listing continues:
What do the screens show for `CCOC(=O)C1(Cc2ccccc2)CCCN(CCCn2cccn2)C1` (configuration not stated)?
GCN5L2 inh: -8%

What do the screens show for `COc1ccc(NS(=O)(=O)c2ccc3c(c2)N(C(C)=O)CC(C)S3)c(OC)c1` (configuration not stated)?
GCN5L2 inh: inconclusive

Results for Cc1cc(C)nc(CCNC(=O)CC2C(=O)NCCN2Cc2ccc(F)cc2Cl)n1 (configuration not stated) ?
GCN5L2 inh: -21%

Results for COc1cccc(C(=O)N2CCC(N3CCN(Cc4ccc(F)cc4)C(=O)C3=O)CC2)c1 ?
GCN5L2 inh: -10%

How did Cc1ccc(N(C)S(=O)(=O)c2cccc(C(=O)N3CCN(Cc4ccccc4)CC3)c2)cc1 do in these assays?
GCN5L2 inh: -6%

What do the screens show for `C[C@@H](C(=O)Nc1nccs1)N1C(=O)C2CC=CCC2C1=O` (some centres not stated)?
GCN5L2 inh: 1%

How did Cc1cccn2c(=O)cc(CSc3nnc(NC(=O)c4ccc(F)cc4)s3)nc12 do in these assays?
GCN5L2 inh: 2%

How did CN(CC(=O)Nc1ccc2c(c1)OCO2)S(=O)(=O)c1ccc(F)cc1 do in these assays?
GCN5L2 inh: -4%

How did CC(Cc1ccccc1)C(=O)N1CCN(C)CC1 (configuration not stated) do in these assays?
GCN5L2 inh: -2%

What do the screens show for `O=C(NCC(O)c1ccccc1)c1cccc(S(=O)(=O)N2CCOCC2)c1` (configuration not stated)?
GCN5L2 inh: -3%

Results for N#CC(Cc1ccc(OC(F)F)cc1)c1nc2ccccc2[nH]1 (configuration not stated) ?
GCN5L2 inh: -2%

What do the screens show for `COc1ccccc1NC(=O)CN(C)S(=O)(=O)c1cc(C)ccc1OC`?
GCN5L2 inh: -3%

Results for CC(=O)Nc1cccc(NC(=O)c2cccc3cccnc23)c1 ?
GCN5L2 inh: -3%

What do the screens show for `Cc1ccccc1-c1nnn(CC(=O)Nc2ccc3c(c2)OCO3)n1`?
GCN5L2 inh: -7%

Results for CC(=O)c1c(C)[nH]c(C(=O)C(C)Sc2nnc(NC3CC3)s2)c1C (configuration not stated) ?
GCN5L2 inh: -8%

What do the screens show for `Cc1ccc(CNC(=O)COC(=O)CN2C(=O)C3CC=CCC3C2=O)cc1` (configuration not stated)?
GCN5L2 inh: 0%

Results for COc1ccc(/C=C/C(=O)OCc2cccc([N+](=O)[O-])c2)cc1 ?
GCN5L2 inh: 1%

Results for O=C(CCNC(=O)Cn1ccc2ccccc2c1=O)NCCCN1CCN(c2ccc(F)cc2)CC1 ?
GCN5L2 inh: -1%

Results for Cc1nc(N2CCOCC2)c2c(C(=O)N3CCN(c4cc(Cl)ccc4C)CC3)c(C)oc2n1 ?
GCN5L2 inh: -7%

What do the screens show for `COc1ccc2c(c1)C(=O)N(c1ccc(C)cc1)C(=O)C2`?
GCN5L2 inh: 2%

What do the screens show for `O=C(Nc1nc2ccccc2s1)c1c(F)cccc1Cl`?
GCN5L2 inh: -15%

Results for CCc1nnc2sc(-c3ccc(NC(=O)c4ccc5c(c4)OCCO5)cc3)nn12 ?
GCN5L2 inh: 0%

Results for CCCCn1nc(C(=O)O)ccc1=O ?
GCN5L2 inh: -6%

Results for COc1ccc(C(=O)NC(C(=O)N2CCc3ccccc32)C(C)C)cc1 (configuration not stated) ?
GCN5L2 inh: 1%

How did O=C(Nc1ccc(Cl)cc1)c1cc2nc(-c3ccco3)cc(C(F)(F)F)n2n1 do in these assays?
GCN5L2 inh: -13%

How did O=C(CCCCCNC(=O)N1CCn2c1nc1ccccc12)NCc1ccc(F)cc1 do in these assays?
GCN5L2 inh: 1%

What do the screens show for `CS(=O)(=O)c1cccc(C(=O)Nc2cccc(S(=O)(=O)N3CCCC3)c2)c1`?
GCN5L2 inh: 6%

How did COc1ccccc1NC(=S)N1CCCCCC1 do in these assays?
GCN5L2 inh: 0%

What do the screens show for `COC(=O)CN1C(=O)C(C)(C)Oc2ccc(C(=O)Nc3ccccc3F)cc21`?
GCN5L2 inh: -3%

What do the screens show for `COC(=O)C1=C(C)NC2=C(C(=O)CC(C)(C)C2)C1c1cnn(C)c1C` (configuration not stated)?
GCN5L2 inh: -3%

What do the screens show for `COc1ccc(N=C2S/C(=C\c3cccs3)C(=O)N2CC(C)C)cc1`?
GCN5L2 inh: 2%

How did COc1ccc(S(=O)(=O)N(CC(=O)O)c2ccccc2)cc1 do in these assays?
GCN5L2 inh: 0%

What do the screens show for `CC(=O)c1cccc(Nc2ncnc3c2cnn3C)c1`?
GCN5L2 inh: -4%

What do the screens show for `O=C(Nc1ccc(Cl)c(Cl)c1)OCc1cccnc1`?
GCN5L2 inh: -2%

How did CCc1ccc(N(C(=O)Cn2nnc(-c3ccccc3)n2)C(C(=O)NC2CCCCC2)c2ccccn2)cc1 (configuration not stated) do in these assays?
GCN5L2 inh: -9%

How did COc1ccc(C(=O)C2CCCN(C(=O)c3cc(C)on3)C2)cc1F (configuration not stated) do in these assays?
GCN5L2 inh: -1%

What do the screens show for `O=C(CSc1nnc(-c2ccc3c(c2)OCO3)n1-c1ccccc1)c1ccc(Cl)cc1`?
GCN5L2 inh: -1%

What do the screens show for `Cn1nc(C(=O)NCc2ccc(F)cc2)c2ccccc2c1=O`?
GCN5L2 inh: -1%

Results for N#Cc1c(NC(=O)C2CC=CCC2C(=O)O)sc2c1CCCCCC2 (configuration not stated) ?
GCN5L2 inh: -4%

What do the screens show for `COc1ccc(C(=O)Nc2cccc(/C(C)=N/NC(=O)c3ccc([N+](=O)[O-])cc3)c2)cc1OC`?
GCN5L2 inh: -11%

How did Cc1ccc(C(=O)N/C(=C\c2cccc([N+](=O)[O-])c2)C(=O)NC(Cc2ccccc2)C(=O)O)cc1 (configuration not stated) do in these assays?
GCN5L2 inh: -17%

What do the screens show for `Cc1nc(-c2ccc(Cl)cc2)sc1CCNC(=O)C(=O)Nc1ccc2c(c1)OCO2`?
GCN5L2 inh: -6%

How did CCC(C)N(C(=O)CN1C(=O)NC2(CCc3ccccc32)C1=O)C1CCS(=O)(=O)C1 (configuration not stated) do in these assays?
GCN5L2 inh: -5%

What do the screens show for `Cc1ccc(C(C(=O)NCc2ccco2)N(C(=O)CNC(=O)c2cccs2)c2ccc(C)cc2)cc1` (configuration not stated)?
GCN5L2 inh: inconclusive

What do the screens show for `COc1ccc2c(=O)c(-c3ccc4c(c3)OCO4)coc2c1`?
GCN5L2 inh: -2%

What do the screens show for `O=C(COC(=O)c1ccc2ncsc2c1)NCc1ccc(Cl)cc1`?
GCN5L2 inh: 0%

Results for COc1ccc(C2c3[nH]c4ccccc4c3CCN2CCCn2cccn2)cc1C (configuration not stated) ?
GCN5L2 inh: -9%

How did COc1ccc2oc(C(=O)Nc3ccc(C)cn3)c(C)c2c1 do in these assays?
GCN5L2 inh: -4%

What do the screens show for `CCOC(=O)c1c(NC(=O)CNC2CCCCC2)sc(C)c1C`?
GCN5L2 inh: 2%

Results for CCC(=O)Nc1ccc2c(c1)C(=O)N(C)C2=O ?
GCN5L2 inh: inconclusive

How did CCOP(=O)(OCC)c1nc(-c2ccc(OC)cc2)oc1N1CCOCC1 do in these assays?
GCN5L2 inh: -9%

How did C=CCOc1ccccc1CNCc1cccnc1 do in these assays?
GCN5L2 inh: -21%

How did CNC(=O)C1CCN(C(=O)N2CC(C)Oc3ccc(C)cc32)CC1 (configuration not stated) do in these assays?
GCN5L2 inh: -11%

Results for COCCN(CC(=O)NCc1ccc(F)cc1)C(=O)CCC(=O)Nc1nccs1 ?
GCN5L2 inh: -5%

What do the screens show for `CC1=CCC(C(=O)O)C(C(=O)Nc2nc3ccc(S(C)(=O)=O)cc3s2)C1` (configuration not stated)?
GCN5L2 inh: 0%

Results for O=C(NNS(=O)(=O)c1ccccc1F)c1sccc1-n1cccc1 ?
GCN5L2 inh: -2%

What do the screens show for `O=C1CC(C(=O)NC2CCCCC2)C2(CCCCC2)O1` (configuration not stated)?
GCN5L2 inh: -2%

What do the screens show for `O=C(Cc1ccc(F)cc1)NCCc1csc2nc(-c3ccccc3F)nn12`?
GCN5L2 inh: -3%

What do the screens show for `Cc1sc2c(c1C)C(=O)/C(=C\Nc1ccncc1)S(=O)(=O)N2C`?
GCN5L2 inh: -17%

Results for CCCCNc1c([N+](=O)[O-])cc(C(=O)O)cc1[N+](=O)[O-] ?
GCN5L2 inh: -2%

Sorted by SMILES length (falling): some entries from above.
What do the screens show for `CC1=CCC(C(=O)O)C(C(=O)Nc2nc3ccc(S(C)(=O)=O)cc3s2)C1` (configuration not stated)?
GCN5L2 inh: 0%

Results for COCCN(CC(=O)NCc1ccc(F)cc1)C(=O)CCC(=O)Nc1nccs1 ?
GCN5L2 inh: -5%

What do the screens show for `Cc1sc2c(c1C)C(=O)/C(=C\Nc1ccncc1)S(=O)(=O)N2C`?
GCN5L2 inh: -17%

What do the screens show for `O=C(COC(=O)c1ccc2ncsc2c1)NCc1ccc(Cl)cc1`?
GCN5L2 inh: 0%

(cont.)
How did CCOc1ccc(S(=O)(=O)NCC(c2ccc3c(c2)OCO3)N2CCN(C)CC2)cc1 (configuration not stated) do in these assays?
GCN5L2 inh: -7%

Results for O=C(O)CCn1[nH]c(=O)c2ccccc2c1=O ?
GCN5L2 inh: -5%

What do the screens show for `C=CCn1cnc2scc(-c3ccc(C)cc3)c2c1=O`?
GCN5L2 inh: -10%

How did Cc1ccc2nsnc2c1NC(=O)COc1ccccc1 do in these assays?
GCN5L2 inh: -12%

Results for COc1ccccc1N1CCN(/N=C/C=C/c2ccccc2[N+](=O)[O-])CC1 ?
GCN5L2 inh: -6%

What do the screens show for `COC(=O)Nc1ccc(S(=O)(=O)N(CCO)CC(F)(F)C(F)F)cc1`?
GCN5L2 inh: -22%

What do the screens show for `O=C(NNc1ccc([N+](=O)[O-])cc1)C1CC2CCCC(C1)C2=O` (configuration not stated)?
GCN5L2 inh: -14%

How did COc1ccc(-n2ncc(C(C)NS(=O)(=O)c3cc(F)ccc3C)c2C)cc1 (configuration not stated) do in these assays?
GCN5L2 inh: 4%

What do the screens show for `Cc1nc(C)c(C(=O)OCC(=O)N2CCN(c3ccccc3)CC2)s1`?
GCN5L2 inh: -4%

How did CCCCCCOC(=O)c1cccnc1 do in these assays?
GCN5L2 inh: -1%

Results for Cc1ccc2nc(NC(=O)CSc3ncnc4c3oc3ccccc34)sc2c1 ?
GCN5L2 inh: 2%

Results for CN=C(N)NCCC[C@H](N)C(=O)O ?
GCN5L2 inh: 2%&-7%&-11%

Results for C=C(C)c1cccc(C(C)(C)NC(=O)Nc2ccc(Cl)cn2)c1 ?
GCN5L2 inh: -4%

What do the screens show for `Cc1cccc(C)c1NC(=O)COC(=O)c1cc[n+]([O-])cc1`?
GCN5L2 inh: inconclusive

Screening data from PubChem.
